Screening results as filed in PubChem BioAssay.
ID4 binder: binds human ID4 protein on microarray | small molecule microarray, Flag-ID4 binding, fluorescence F/B | calls only | 31,000 compounds, 1.2% hits;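 active means spot signal over background at p below 0.07 in all four prints; compounds were printed on slides so no solution concentration is given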;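 further: a binder raises fluorescence above local background on the spot; about 2 pmol printed per array spot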
Target sequence (P47928 whole entry, looked up): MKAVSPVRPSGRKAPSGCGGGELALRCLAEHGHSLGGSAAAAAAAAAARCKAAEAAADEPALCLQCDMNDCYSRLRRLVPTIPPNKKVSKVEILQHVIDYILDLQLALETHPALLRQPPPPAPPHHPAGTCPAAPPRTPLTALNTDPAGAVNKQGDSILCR
p53 mut binder: mutant p53 (human) binding | small molecule microarray binding, anti-GST fluorescence | calls only | 17,000 compounds, 0.4% hits | AID 624136;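 active means compounds whose four printed spots each glow above background more than chance allows, each with a p-value under 7%; compounds were printed on slides so no solution concentration is given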;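 further: about 2 pmol printed per array spot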
Myc binder: binds human c-Myc on microarray | calls only | P01106 | small molecule microarray, His-c-Myc binding, anti-His fluorescence | AID 624141 | 17,000 compounds, 1.5% hits;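 active means spot fluorescence over background with P-value below 7% in all four replicate spots, showing protein binding; compounds were printed on slides so no solution concentration is given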;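 further: score is binary with 100 for all four spots passing and 0 otherwise; about 2 pmol printed per array spot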
Target sequence (P01106 whole entry, looked up): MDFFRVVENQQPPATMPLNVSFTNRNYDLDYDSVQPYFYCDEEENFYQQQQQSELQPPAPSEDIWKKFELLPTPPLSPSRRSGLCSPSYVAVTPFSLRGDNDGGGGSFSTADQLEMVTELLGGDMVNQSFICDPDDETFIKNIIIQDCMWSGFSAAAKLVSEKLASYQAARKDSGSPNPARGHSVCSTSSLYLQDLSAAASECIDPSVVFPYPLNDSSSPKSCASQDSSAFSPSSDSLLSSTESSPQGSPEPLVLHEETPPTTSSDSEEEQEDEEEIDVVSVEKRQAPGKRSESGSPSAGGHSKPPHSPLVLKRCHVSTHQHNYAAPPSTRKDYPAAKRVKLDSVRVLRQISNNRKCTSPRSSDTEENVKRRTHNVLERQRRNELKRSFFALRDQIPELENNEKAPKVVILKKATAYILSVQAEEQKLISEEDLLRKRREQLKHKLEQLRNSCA
STAT3 binder: binds human STAT3 on microarray; Small molecule microarray, His-STAT3 binding, anti-His fluorescence; calls only; 17,000 compounds, 0.2% hits; AID 624138;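 active means compounds whose four printed spots each show fluorescence over background unusually high for their array block, chance value under 7%; compounds were printed on slides so no solution concentration is given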;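 further: about 2 pmol printed per array spot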
Calls only; i = inactive; · = not tested or not shown; + = active, no number. A portion of the library. The share of hits here may be higher or lower than overall.

Start of the listing, in advance:
SMILES	ID4 binder	p53 mut binder	Myc binder	STAT3 binder
COc1ccc(CN(C)C[C@@H]2Oc3ccc(NC(=O)Nc4ccc(OC)cc4)cc3C(=O)N([C@@H](C)CO)C[C@@H]2C)cc1	i	i	i	i
CC(=O)Nc1ccccc1NC(=O)COc1ccc([N+](=O)[O-])cc1	i	i	i	i

All compounds of this part, previewed entries included:
SMILES	ID4 binder	p53 mut binder	Myc binder	STAT3 binder
COc1ccc(CN(C)C[C@@H]2Oc3ccc(NC(=O)Nc4ccc(OC)cc4)cc3C(=O)N([C@@H](C)CO)C[C@@H]2C)cc1	i	i	i	i
CC(=O)Nc1ccccc1NC(=O)COc1ccc([N+](=O)[O-])cc1	i	i	i	i
CC(C)NC(=O)Nc1ccc2c(c1)C(=O)N([C@@H](C)CO)C[C@@H](C)[C@H](CN(C)Cc1ccc(C(F)(F)F)cc1)OCCCC[C@@H](C)O2	·	i	i	i
CC(Sc1nc(=O)cc(N)n1-c1ccccc1)C(=O)Nc1ccc(Cl)cc1 (stereo not drawn)	i	i	i	i
C[C@H](CO)N1C[C@H](C)[C@@H](CN(C)C(=O)Nc2ccc(F)cc2)Oc2c(NC(=O)NC3CCCCC3)cccc2C1=O	i	i	i	i
CC(=O)c1ccc(NC(=O)Cn2cnc3c(sc4nc5c(cc43)COC(C)(C)C5)c2=O)cc1	i	i	i	i
C[C@@H]1CN([C@@H](C)CO)C(=O)CCCn2nncc2CO[C@H]1CN(C)Cc1ccc(Cl)c(Cl)c1	i	i	i	i
NC(=O)CSc1nnc(-c2ccccc2F)n1-c1ccccc1	i	i	i	i
CNC[C@H]1Oc2ccc(NC(=O)NC(C)C)cc2CC(=O)N([C@H](C)CO)C[C@H]1C	i	i	i	i
CCCCC/C=C/C=C/C(O)CCCCCCCC(=O)O (stereo not drawn)	i	i	i	i
Cc1noc(C)c1NC(=O)Nc1ccc2c(c1)C(=O)N([C@H](C)CO)C[C@H](C)[C@@H](CN(C)C(=O)Nc1c(C)noc1C)OCCCC[C@H](C)O2	i	i	i	i
C[C@@H]1CCCCO[C@@H](CN(C)C)[C@@H](C)CN([C@H](C)CO)C(=O)c2cc(NC(=O)CCC(F)(F)F)ccc2O1	i	i	i	i
Cc1noc(C)c1NC(=O)Nc1ccc2c(c1)C(=O)N([C@H](C)CO)C[C@H](C)[C@@H](CN(C)Cc1ccc(C(=O)O)cc1)O2	·	i	i	i
C[C@H]1CN([C@@H](C)CO)C(=O)CCCn2cc(nn2)CO[C@H]1CN(C)C(=O)CCC(F)(F)F	i	i	i	i
C[C@@H]1CCCCO[C@H](CN(C)S(=O)(=O)c2ccccc2)[C@@H](C)CN([C@H](C)CO)C(=O)c2cc(N(C)C)ccc2O1	i	i	i	i
COc1ccc(S(=O)(=O)N(C)C[C@@H]2Oc3c(NC(=O)Nc4cccc5ccccc45)cccc3C(=O)N([C@@H](C)CO)C[C@H]2C)cc1	i	i	i	i
Cc1nnc(SCC(=O)Nc2ccc(F)c(F)c2F)s1	i	i	i	i
COc1ccc(S(=O)(=O)N(C)CC(=O)NC2CC2)cc1	i	i	i	i
CC(C)Nc1nc(SCC(=O)Nc2ccccc2)nc(N2CCOCC2)n1	i	i	i	i
COc1ccc([C@H]2OC[C@H]3[C@@H]2CO[C@@H]3c2ccc(O[C@@H]3O[C@H](CO)C(O)[C@H](O)[C@H]3O)c(OC)c2)cc1OC (stereo partly drawn)	i	i	i	i
C[C@]1(O)CC[C@@H]2C(C(=O)O)=CO[C@@H](O[C@@H]3O[C@H](COC(=O)/C=C/c4ccc(O)c(O)c4)[C@@H](O)[C@H](O)[C@H]3O)[C@@H]21	·	i	i	i
C[C@@H]1CCCCO[C@@H](CN(C)C(=O)C2CCCCC2)[C@@H](C)CN([C@H](C)CO)C(=O)c2cc(NC(=O)Nc3ccccc3)ccc2O1	i	i	i	i
COc1ccc(NC(=O)Nc2ccc3c(c2)C(=O)N([C@@H](C)CO)C[C@@H](C)[C@@H](CN(C)S(=O)(=O)c2c(C)noc2C)OCCCC[C@@H](C)O3)cc1	·	i	i	i
C[C@@]12C[C@]3(O)O[C@H](O1)C1(COC(=O)c4ccccc4)[C@H]3C[C@@]12O[C@@H]1O[C@H](COC(=O)c2ccccc2)[C@@H](O)[C@H](O)[C@H]1O	i	i	i	i
COc1ccc(CN(C)C[C@H]2Oc3ccc(NS(=O)(=O)c4ccc(OC)cc4)cc3C(=O)N([C@H](C)CO)C[C@H]2C)cc1	i	i	i	i
C[C@@H]1CN([C@H](C)CO)C(=O)c2cccc(NC(=O)NC3CCCCC3)c2O[C@H]1CN(C)S(=O)(=O)c1ccc(Cl)cc1	i	i	i	i
C[C@H](CO)N1C[C@H](C)[C@H](CN(C)C(=O)Nc2ccc(C(F)(F)F)cc2)OCCCC[C@H](C)Oc2ccc(NC(=O)Nc3ccc(F)cc3)cc2C1=O	·	i	i	i
COCCOC(=O)N1C(=O)[C@@]2(c3cc(C#Cc4ccc(OC)cc4)ccc31)[C@H](c1ccccc1OCCO)N1[C@H](c3ccccc3)[C@H](c3ccccc3)OC(=O)[C@H]1[C@@H]2C(=O)N1CCN(c2ncccn2)CC1	i	i	i	i
C[C@H](CO)N1C[C@H](C)[C@@H](CN(C)C(=O)Nc2ccc(C(F)(F)F)cc2)Oc2c(NC(=O)C3CC3)cccc2C1=O	·	i	i	i
CNC[C@H]1Oc2c(NS(=O)(=O)c3ccc(OC)cc3)cccc2C(=O)N([C@@H](C)CO)C[C@H]1C	i	i	i	i
COc1cc(/C=C/CO[C@@H]2O[C@H](CO)[C@@H](O)[C@H](O)[C@H]2O)ccc1O	i	i	i	i
C[C@@H]1CN([C@@H](C)CO)C(=O)Cc2cc(NC(=O)CCN3CCOCC3)ccc2O[C@H]1CN(C)Cc1ccncc1	i	i	i	i
COc1cc(SC)ccc1C(=O)N1CCC(Cc2ccccc2)CC1	i	i	i	i
C[C@@H]1CCCCO[C@H](CN(C)C)[C@@H](C)CN([C@H](C)CO)C(=O)c2cc(NC(=O)Nc3ccc4c(c3)OCO4)ccc2O1	i	i	i	i
COC(=O)CSc1nc(-c2cccc(C)c2)nc2c1CCCC2	i	i	i	i
CCOC(=O)C1CCN(C(=O)Nc2ccc3snnc3c2)CC1	i	i	i	i
Cc1noc(C)c1NC(=O)Nc1cccc2c1O[C@@H](CN(C)S(=O)(=O)c1ccc(Cl)cc1)[C@H](C)CN([C@H](C)CO)C2=O	i	i	i	i
COc1ccc(S(=O)(=O)Nc2cccc3c2O[C@@H](CN(C)Cc2ccc(C(F)(F)F)cc2)[C@H](C)CN([C@H](C)CO)C3=O)cc1	i	i	i	+
CC(=O)Nc1ccc(Br)cc1-c1nc2ccccc2nc1OCc1ccc(Cl)cc1	i	i	i	i
COC(=O)c1cc(NC(=O)COc2ccccc2OC)cc(C(=O)OC)c1	i	i	i	i
C[C@H]1CN([C@@H](C)CO)C(=O)Cc2cc(NS(=O)(=O)c3cn(C)cn3)ccc2O[C@@H]1CN(C)S(=O)(=O)c1cn(C)cn1	i	i	i	i
COc1ccc2c(c1)C(=O)CC(c1ccccc1)O2 (stereo not drawn)	i	i	i	i
COc1cc(-c2nnc(SCC(=O)c3ccccc3)n2-c2ccccc2)cc(OC)c1OC	i	i	i	i
C[C@H](CO)N1C[C@H](C)[C@@H](CN(C)S(C)(=O)=O)OCCCC[C@H](C)Oc2ccc(NC(=O)c3ccncc3)cc2C1=O	·	i	i	i
COc1ccc(CN(C)C[C@H]2Oc3c(NS(=O)(=O)c4cn(C)cn4)cccc3C(=O)N([C@H](C)CO)C[C@H]2C)cc1	i	i	i	i
C[C@@H]1CN([C@H](C)CO)C(=O)c2cc(NC(=O)Nc3ccccc3)ccc2O[C@H]1CN(C)Cc1ccncc1	i	i	i	i
C[C@@H]1CN([C@@H](C)CO)C(=O)Cc2cc(NS(=O)(=O)c3ccc(Cl)cc3)ccc2O[C@H]1CN(C)Cc1ccc2c(c1)OCO2	·	i	i	i
CC1CC2C3CCC4=CC(=O)C=CC4(C)C3(F)C(O)CC2(C)C1(O)C(=O)CO (stereo not drawn)	·	i	i	i
CC(C)(C)c1ccc(N2C(=O)CSC2c2ccccc2)cc1 (stereo not drawn)	i	i	i	i
COc1ccc(S(=O)(=O)Nc2ccc3c(c2)C(=O)N([C@@H](C)CO)C[C@H](C)[C@@H](CN(C)C(=O)c2ccncc2)OCCCC[C@@H](C)O3)cc1	·	i	i	i
Clc1ccccc1OCCSc1nnc(-c2cccnc2)n1-c1ccccc1	i	i	i	i
COc1ccc(NC(=O)CN2CCN(S(=O)(=O)c3c(C)cc(C)cc3C)CC2)cc1	i	i	i	i
CNC[C@@H]1Oc2c(NS(=O)(=O)c3c(C)noc3C)cccc2C(=O)N([C@@H](C)CO)C[C@@H]1C	i	i	i	i
C[C@@H]1CN([C@@H](C)CO)C(=O)Cc2cc(NC(=O)Nc3cccc4ccccc34)ccc2O[C@H]1CN(C)Cc1ccc(C(=O)O)cc1	·	i	i	i
CC1(C)CC(=O)C2=C(C1)N(Cc1ccco1)C(=O)C2(NC(=O)c1ccco1)C(F)(F)F (stereo not drawn)	i	i	i	i
Cc1noc(C)c1NC(=O)N(C)C[C@@H]1Oc2c(NS(=O)(=O)c3cn(C)cn3)cccc2C(=O)N([C@@H](C)CO)C[C@H]1C	i	i	i	i
Cc1noc(C)c1NC(=O)N(C)C[C@H]1OCCCC[C@@H](C)Oc2ccc(NS(=O)(=O)c3cccs3)cc2C(=O)N([C@@H](C)CO)C[C@H]1C	i	i	i	i
Cc1cc(C)nc(SCC(=O)c2cc(C(C)(C)C)c(O)c(C(C)(C)C)c2)n1	i	i	i	i
C[C@@H]1CN([C@@H](C)CO)C(=O)Cc2cc(NC(=O)NC3CCCCC3)ccc2O[C@H]1CN(C)C(=O)Nc1ccc2c(c1)OCO2	i	i	i	i
C[C@@H]1CCCCO[C@H](CN(C)S(C)(=O)=O)[C@@H](C)CN([C@@H](C)CO)C(=O)c2cc(NS(=O)(=O)c3ccccc3)ccc2O1	i	i	i	i

Reformatted with values under each structure: entries from further up.
Values run as follows: ID4 binder, p53 mut binder, Myc binder, STAT3 binder
> CNC[C@@H]1Oc2c(NS(=O)(=O)c3c(C)noc3C)cccc2C(=O)N([C@@H](C)CO)C[C@@H]1C
    i, i, i, i
> Cc1noc(C)c1NC(=O)N(C)C[C@@H]1Oc2c(NS(=O)(=O)c3cn(C)cn3)cccc2C(=O)N([C@@H](C)CO)C[C@H]1C
    i, i, i, i
> Clc1ccccc1OCCSc1nnc(-c2cccnc2)n1-c1ccccc1
    i, i, i, i
> Cc1cc(C)nc(SCC(=O)c2cc(C(C)(C)C)c(O)c(C(C)(C)C)c2)n1
    i, i, i, i
> COc1ccc(S(=O)(=O)Nc2ccc3c(c2)C(=O)N([C@@H](C)CO)C[C@H](C)[C@@H](CN(C)C(=O)c2ccncc2)OCCCC[C@@H](C)O3)cc1
    ·, i, i, i

(listing goes on)
SMILES	ID4 binder	p53 mut binder	Myc binder	STAT3 binder
C[C@H]1CN([C@@H](C)CO)C(=O)CCCn2cc(nn2)CO[C@H]1CN(C)S(=O)(=O)c1ccc(Oc2ccccc2)nc1	i	i	i	i
CCOC(=O)C1=CC[C@@H](c2ccc(OC)cc2)[C@@H]1C(=O)c1ccccc1	i	i	i	i
C[C@H](CO)N1C[C@H](C)[C@@H](CN(C)C(=O)C2CCCCC2)OCCCC[C@H](C)Oc2ccc(N(C)C)cc2C1=O	i	i	i	i
CN(C)CCN1C(=O)c2ccccc2N(C)c2ccccc21	i	i	i	i
C[C@@H]1CN([C@H](C)CO)C(=O)c2cccc(NC(=O)c3ccncc3)c2O[C@H]1CN(C)Cc1ccc(C(=O)O)cc1	i	i	i	i
C[C@@H]1CCCCO[C@@H](CN(C)Cc2ccc3c(c2)OCO3)[C@@H](C)CN([C@@H](C)CO)C(=O)c2cc(NC(=O)CCCN(C)C)ccc2O1	i	i	i	i
CNC[C@@H]1OCCCC[C@@H](C)Oc2ccc(NC(=O)NC(C)C)cc2C(=O)N([C@@H](C)CO)C[C@H]1C	i	i	i	i
CCCCC(=O)N(Cc1ccc(-c2ccccc2-c2nn[nH]n2)cc1)[C@H](C(=O)O)C(C)C	i	i	i	i
COCCOC(=O)N1C(=O)[C@@]2(c3cc(C#CCC(C(=O)OC)C(=O)OC)ccc31)[C@H](C(=O)NC[C@H](O)c1ccccc1)[C@H]1C(=O)O[C@H](c3ccccc3)[C@H](c3ccccc3)N1[C@@H]2c1ccc(O)cc1	i	i	i	i
COC(=O)c1ccccc1NC(=O)c1ccc(COc2ccccc2)o1	i	i	i	i
C[C@@H]1CN([C@H](C)CO)C(=O)Cc2cc(NS(=O)(=O)c3ccccc3)ccc2O[C@H]1CN(C)C(=O)Nc1ccccc1	i	i	i	i
CCn1c(SCC(=O)N2CCc3ccccc32)nnc1-c1ccncc1	i	i	i	i
COc1ccc(S(=O)(=O)Nc2ccc3c(c2)CC(=O)N([C@@H](C)CO)C[C@@H](C)[C@@H](CN(C)Cc2ccc(C(F)(F)F)cc2)O3)cc1	i	i	i	i
N#C/C(=C\c1ccc(O)c(O)c1)C(=O)NC1CCC(CC2CCC(NC(=O)/C(C#N)=C/c3ccc(O)c(O)c3)CC2)CC1 (stereo not drawn)	i	i	i	i
C[C@H](CO)N1C[C@H](C)[C@@H](CN(C)Cc2cccc3c2OCCCO3)OCc2cn(nn2)CCCC1=O	i	i	i	i
C[C@@H]1CN([C@@H](C)CO)C(=O)c2cccc(NC(=O)Nc3ccc4c(c3)OCO4)c2O[C@@H]1CN(C)C(=O)NC1CCCCC1	i	i	i	i
